NPYLR7 agonist = mosquito NPYLR7 agonism; actives 0.15% (n = 270,000); activation, % at 10 µM; HEK293T NPYLR7/Galpha15, GCaMP6s calcium fluorescence; in the data active means activation above about 40%;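 further: 0% = vehicle and 100% = reference agonist at the receptor; some compounds past the cut are filed as inactive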
NPYLR7 agonist max-min = second read-out of NPYLR7 agonist, no call of its own (marks repeat the call); activation, %; measured here: Max-Min RFU normalised activation; some inactives read as strong as hits;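 span of the calcium signal over five minutes; 0% = vehicle and 100% = native peptide agonist; compound fluorescence can raise it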
* marks the source's active call; other numbers are inactive results; & = joins results of further samples. Not all compounds are listed; rates above refer to the full screens.

SMILES | NPYLR7 agonist | NPYLR7 agonist max-min
Nc1c(C(=O)N2CCCC3CCCCC32)cnn1-c1cc(F)ccc1F (stereo not drawn) | 0 | 23
Cc1nc2sc3c(c2c(=O)o1)CCCCC3 | -8 | -7
CN(Cc1csc(-c2cccs2)n1)Cc1nc(-c2ccccn2)no1 | 15 | 4
COc1ccccc1-n1c(C)nnc1SCc1ccc(C(=O)NCc2ccco2)cc1 | 20 | 17
CC(C)N1CC(NC(=O)c2cc(CN3CCOCC3)on2)CC1=O (stereo not drawn) | 3 | 2
O=C(Cc1ccsc1)N1CCOC(c2ccccc2)C1 (stereo not drawn) | 5 | 10
O=C(Nc1nc(-c2ccccc2)cs1)c1ccccc1F | 1 | 0
CC(C)n1cc(CN2CCCC2C(=O)Nc2cccc(-n3cccn3)c2)cn1 (stereo not drawn) | 4 | -1
COc1ccc(CNC(=O)Cn2ncn3nc(-c4ccc(F)cc4)cc3c2=O)cc1 | -10 | -16
CC(C)CN(CC(C)C)C(=O)c1ccc(-n2nc(-c3ccc(Cl)cc3)cc2N)cc1 | 2 | -1
Cc1ccc(OCC2CN(C(=O)COc3cccc(C)c3)CCO2)cc1 (stereo not drawn) | -2 | -4
COc1cccc2cc(C(=O)N3CCC(Cn4ccnc4C(C)C)CC3)oc12 | -3 | -6
CCc1ncc(CN2CCC(C(=O)Nc3cccc(-c4cscn4)c3)CC2)cn1 | 9 | 1
Cc1ccc(OCCCn2c(N)nc(C#N)c2C#N)cc1C | 4 | 3
CC(Oc1ccccc1Cl)C(=O)N1CCOC(COCc2c(Cl)cccc2Cl)C1 (stereo not drawn) | 2 | -8
CC(O)Cn1cnc2c(F)cccc2c1=O (stereo not drawn) | 6 | 6
COc1cc(OC)cc(C(=O)N2CCc3ccccc3C2c2ccc(F)cc2)c1 (stereo not drawn) | 5 | -1
COC(=O)NC1CCN(c2ccccc2C(=O)NCc2cccnc2)CC1 | 19 | 22
Cc1cc(I)ccc1N=Cc1nc(-c2ccccc2)oc1O | -4 | -10
O=C(NC1CCCCC1)N1CCSC12C(=O)N(Cc1ccc(F)c(F)c1)c1ccccc12 (stereo not drawn) | 0 | 1
O=C(c1cccc(NCc2ccc(F)cc2)c1)N1CCCC(Cn2ccnc2)C1 (stereo not drawn) | 2 | 2
O=[N+]([O-])c1ccc(N=Cc2sc3ccccc3c2O)cc1 | 6 | 4
C=CCNC(=O)NC1CCN(c2ccccc2C(=O)NC2CC2)CC1 | -1 | 4
Cc1oc2ccc(OCC(=O)c3ccc(Cl)cc3)cc2c1C(=O)OC(C)C | -2 | -7
O=C(NC12CC3CC(C1)CC(n1cncn1)(C3)C2)c1cc2n(n1)CCNC2 | 1 | 1
O=S(=O)(NCc1ccccc1)N1CCCC1C(F)(F)F (stereo not drawn) | 7 | 3
CCn1ccnc1CNCc1cn(-c2cc(C)ccc2C)nc1-c1ccccc1 | 0 | -5
O=C(Cn1c(CO)cnc1SCc1ccc(Cl)cc1Cl)NC1CC1 | 7 | 2
N#Cc1ccc(S(=O)(=O)N2CCN(C(c3ccccc3)c3ccc(Br)cc3)CC2)cc1 (stereo not drawn) | 16 | 16
Cc1cc(C)cc(N2C(=O)CSC2c2ccccn2)c1 (stereo not drawn) | -5 | -11

Of the compounds above, two have a cyano group.
SMILES | NPYLR7 agonist | NPYLR7 agonist max-min
Cc1ccc(OCCCn2c(N)nc(C#N)c2C#N)cc1C | 4 | 3
N#Cc1ccc(S(=O)(=O)N2CCN(C(c3ccccc3)c3ccc(Br)cc3)CC2)cc1 (stereo not drawn) | 16 | 16

2 compounds picked at random from those above:
SMILES | NPYLR7 agonist | NPYLR7 agonist max-min
CC(Oc1ccccc1Cl)C(=O)N1CCOC(COCc2c(Cl)cccc2Cl)C1 (stereo not drawn) | 2 | -8
CC(O)Cn1cnc2c(F)cccc2c1=O (stereo not drawn) | 6 | 6

Next part
SMILES | NPYLR7 agonist | NPYLR7 agonist max-min
O=C(NCc1noc(CN2CCCCC2)n1)c1ccccc1 | 0 | -1
CCCC(=O)N1N=C(c2cccs2)CC1c1cccc(OC)c1O (stereo not drawn) | 2 | -1
Cc1nc(C)c(-c2nccn2-c2ccc3cn[nH]c3c2)s1 | -5 | -10
CNCC(=O)NC(C)c1nc2c(s1)CCCC2 (stereo not drawn) | 0 | -9
c1csc(-c2nnn(CN3CCN(Cc4nc5ccccc5s4)CC3)n2)c1 | 3 | -1
O=C1CC2Sc3ccccc3N=C2N1CCO (stereo not drawn) | 11 | 7
COc1ccc(CCNC(=O)c2ccccc2N2CCC(NC(=O)/C=C/c3ccccc3)CC2)cc1 | 21 | 15
O=C1CC2CS(=O)(=O)CC2N1CCN1CCOCC1 (stereo not drawn) | 2 | 1
CCOC(=O)c1c(C)[nH]c(NC(=O)NC2CCCCC2)c1C | 13 | 10
COc1ccc(N2CCN(c3cc(C(C)(C)C)nc(SCc4cccc(C(=O)NCc5ccco5)c4)n3)CC2)cc1 | 2 | 2
Cc1ccccc1CN1CCN(c2ccc3c(c2)CCC3)C(=O)C1C (stereo not drawn) | 7 | 8
CN1CCN(c2nccc3[nH]c(-c4ccccc4)nc23)CC1 | -5 | -12
O=C(NCC1CCCN(C(=O)C2=CCCCC2)C1)c1ccc(-c2ccccc2)cc1 (stereo not drawn) | 12&39 | 10&44
Cc1ccc(N2CCn3c2nc2c3c(=O)n(CCN3CCCCC3)c(=O)n2C)cc1Cl | -3 | -5
Cn1nnc2c(N3CCN(C(=O)COc4cccc(C(F)(F)F)c4)CC3)ncnc21 | 1 | 13
CON1C(=O)C2C(C1=O)C1(Cl)CC2(Cl)C(Cl)=C1Cl (stereo not drawn) | -1 | 23
CC(C1CC1)n1nccc1NC(=O)c1ccc(S(=O)(=O)N(C)C)cc1 (stereo not drawn) | 9 | 6
CSCCNC(=O)c1c(C)noc1-c1cccc(F)c1 | -3 | -1
Cc1cccn2c(CNCC(C)Oc3cccnc3)c(C(=O)N3CCOCC3)nc12 (stereo not drawn) | -8 | -14
CC(=O)N1CCN(C(=O)C(C)Nc2ccc3ccccc3c2)CC1 (stereo not drawn) | 0 | -1
Cc1ccccc1Cc1nc(CSc2nnc(N)n2C)no1 | 0 | -1
COC(=O)CCCC(=O)N1CCC(c2nc(-c3cccc(C)c3)no2)CC1 | 4 | -2
O=S(=O)(NCc1ccccc1)NCc1noc(Cc2ccccc2)n1 | 4 | 3
Cc1c(C(=O)NCCc2cccc(Cl)c2)cnc2c(-c3ccc(F)cc3)cnn12 | 8 | -2
Fc1cccc(CSc2ncnc3c2nnn3Cc2ccccc2F)c1 | 3 | 13
O=C(Cn1ncn2nc(-c3ccc(Cl)cc3)cc2c1=O)Nc1ccccc1C(F)(F)F | -9 | -15
CCN(CC)S(=O)(=O)c1ccc2c(c1)nc(SCc1cccc(Cl)c1)n2Cc1ccco1 | 28 | 14
CN(C(=O)CCC(F)(F)F)C1CCCN(CCCc2ccccc2)C1 (stereo not drawn) | 3 | -1
CN1CCN(Cc2nc(COc3ccccc3)no2)CC1c1ccccc1 (stereo not drawn) | 2 | -1
Cc1cc(C)n(CCNC(=O)Cc2c(C)[nH]c3ccccc23)c(=O)n1 | 4 | 2
CCN(CC)CCCNc1c2c(c(C#N)c3nc4ccccc4n13)CCC2 | 4 | 2
CCOC(=O)c1c(NC(=O)c2snnc2C)c(-c2cccc(F)c2)cn1C | 6 | 7
O=C(NCc1ccc(C(F)(F)F)cc1)c1ccc(Cl)cc1N1CCCC1=O | 1 | -2
CCOC(=O)c1cnc2c(F)cccc2c1N | 9 | 8
O=C1CCCN1C(=O)CSc1nc2c(Cl)cc(Cl)cc2[nH]1 | 0 | -3
COc1ccc2c(=O)c(OC)c(-c3ccccc3)oc2c1 | -8 | -16
O=C(NCc1cc2ccccc2s1)C1CCC(=O)N(CCc2cccc(F)c2)C1 (stereo not drawn) | 7 | 4
COc1ccc(CC(=O)NC2CCCc3nc(-c4cccnc4)ncc32)cc1 (stereo not drawn) | -2 | -5
CC1CCCCN1Cc1nc2c(c(=O)n(C)c(=O)n2C)n1Cc1ccc(F)cc1 (stereo not drawn) | 5 | 1
Cc1cccc2nc(-c3ccccc3Cl)c(NC(C)(C)CC(C)(C)C)n12 | -4&1 | -2&7
Cn1c(=O)[nH]c(=O)c2c1nc(SCCN1CCCCC1)n2Cc1ccccc1 | 0 | 22
CC1=C(C#N)C(C)C2=C(CC(C)(C)CC2=O)N1 (stereo not drawn) | -1 | -3
C=CCNC(=O)NC(=O)CSc1ncnc2sc3c(c12)CCC3 | 0 | 0
Cc1ccc(S(=O)(=O)NC(C)C(=O)OCc2nnsc2Cl)cc1 (stereo not drawn) | 10 | 11
Cc1ccc(-c2nc(C=Nc3ccc(C(=O)O)cc3)c(O)o2)cc1 | -4 | -9
CCC(CO)NP1(=O)C=C(c2ccccc2)SC(c2ccccc2)=C1 (stereo not drawn) | 0 | -3
COc1cccc(Oc2cc(N3CCN(S(=O)(=O)c4ccc(C)cc4)C(C)C3)ncn2)c1 (stereo not drawn) | -6 | 1
CCCCN(Cc1cccn1Cc1cccc(C)c1)C(=O)CN(CCOC)C(=O)COc1ccccc1 | -8 | -1
CC(C)N(C)Cc1nnnn1CC(=O)N1CCN(c2cccc(C(F)(F)F)c2)CC1 | 3 | 1
COc1ccccc1CN1C(=O)C(Cc2ccccc2)ON=C1c1ncccc1C (stereo not drawn) | 9 | 9
COc1cc(NC(=O)Cn2cnc([N+](=O)[O-])n2)c(OC)cc1Cl | -4 | -6
N#Cc1cncc(N2CCc3ccccc3C2)n1 | 3 | 0
CCOc1ccccc1N1CCN(C(=O)c2csc(CN(CCOC)C(=O)Nc3ccc(Cl)c(Cl)c3)n2)CC1 | -6 | 0
Cc1cccc(C2(NC(=O)CSc3nncs3)CCCC2)c1 | -8 | 16
COCC(=O)n1nc(-c2ccccc2)nc1NCc1ccccc1 | -3 | -5
COCCCN(CC(=O)N1CCc2sccc2C1COc1ccc(F)cc1)C(=O)Nc1ccc(C)cc1 (stereo not drawn) | -2 | 3
Cc1ccc(NC(=O)Cn2c(O)c(N=Nc3ccccc3C)c3ccccc32)cc1 | -4 | -9
Cc1c(Cl)cccc1NC(=O)CN1C(=O)c2cccc([N+](=O)[O-])c2C1=O | -1 | -7
CC(C(=O)NC1CCCC1)N(C)C/C=C/c1ccccc1 (stereo not drawn) | 9 | 0
O=C(N[C@H]1CCCCNC1=O)c1ccccc1OC1CCN(Cc2ccccn2)CC1 | 4 | 2

Exported with values under each structure: 6 of the compounds above
Order of values – NPYLR7 agonist, NPYLR7 agonist max-min
> CCCCN(Cc1cccn1Cc1cccc(C)c1)C(=O)CN(CCOC)C(=O)COc1ccccc1
    -8, -1
> CC(C)N(C)Cc1nnnn1CC(=O)N1CCN(c2cccc(C(F)(F)F)c2)CC1
    3, 1
> COc1ccccc1CN1C(=O)C(Cc2ccccc2)ON=C1c1ncccc1C (stereo not drawn)
    9, 9
> COc1cc(NC(=O)Cn2cnc([N+](=O)[O-])n2)c(OC)cc1Cl
    -4, -6
> N#Cc1cncc(N2CCc3ccccc3C2)n1
    3, 0
> CCOc1ccccc1N1CCN(C(=O)c2csc(CN(CCOC)C(=O)Nc3ccc(Cl)c(Cl)c3)n2)CC1
    -6, 0

Next section.
SMILES | NPYLR7 agonist | NPYLR7 agonist max-min
COCCn1cnnc1C(C)NC1CCC2(CCNCC2)CC1 (stereo not drawn) | 0 | -1
COc1cccc(CN2CCc3c(c(C(=O)NCCCN4CCOCC4)nn3C)C2)c1 | 13 | 0
O=C(COc1nnc2c(n1)Nc1ccccc1S2)N1CCCc2ccccc21 | 10 | 2
Fc1ccccc1Oc1ccc2c(-c3cccnc3)noc2n1 | 1 | -1

Assay outcomes as filed in PubChem BioAssay.
